PABP FP inh – blocks human PABP binding to poly(A) RNA; inhibition, % at 35 µM; 1% of 290,000 active; P11940; fluorescence polarization;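 active = 50% or more with normal probe brightness, or confirmed in later tests; about a fifth of its hits are not listed in these tables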;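 note: calls also rest on retests at 20 µM and on dose response follow-up; controls were probe without protein and protein plus probe with vehicle; some compounds called inactive have numbers as strong as hits; many hits fall short of the cut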
Target sequence (P11940 whole entry, looked up): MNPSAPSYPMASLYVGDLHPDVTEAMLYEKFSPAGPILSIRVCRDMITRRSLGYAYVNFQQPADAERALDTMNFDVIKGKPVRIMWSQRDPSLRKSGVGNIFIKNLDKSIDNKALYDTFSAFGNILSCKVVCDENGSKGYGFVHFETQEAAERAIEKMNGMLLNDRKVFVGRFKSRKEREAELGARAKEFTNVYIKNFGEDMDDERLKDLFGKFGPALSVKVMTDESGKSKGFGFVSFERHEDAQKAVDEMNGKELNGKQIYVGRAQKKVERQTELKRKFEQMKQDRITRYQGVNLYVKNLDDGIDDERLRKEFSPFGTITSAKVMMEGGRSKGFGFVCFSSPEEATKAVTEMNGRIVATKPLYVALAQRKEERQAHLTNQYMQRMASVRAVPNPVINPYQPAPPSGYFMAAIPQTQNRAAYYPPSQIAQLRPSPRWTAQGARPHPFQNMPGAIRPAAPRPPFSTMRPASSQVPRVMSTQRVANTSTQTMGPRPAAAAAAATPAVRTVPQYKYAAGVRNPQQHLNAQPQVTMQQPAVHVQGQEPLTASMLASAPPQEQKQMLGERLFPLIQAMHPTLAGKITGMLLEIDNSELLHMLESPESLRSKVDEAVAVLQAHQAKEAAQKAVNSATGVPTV
MT1-MMP act inh – inhibitors of human MT1-MMP activation. P50281. HT1080 RFP-PRO-GFP cells, GFP/RFP ratio fluorescence, overnight; percent of plate control window, DMSO zero. GFP/RFP ratio change, % at 20 µM. 0.061% of 360,000 active. AID 651647;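 active = GFP/RFP ratio change of at least 30% with cell ATP level not reduced by more than half and red fluorescence within 50% of control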; note: strong numbers were not always called active
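Test system: HT1080 cells expressing an RFP-PRO-GFP fluorescent reporter construct / Compound dosing: single-point 20 µM compound, 1% DMSO / Schedule: cells overnight before dosing, compound overnight, 37 °C, 5% CO2 / Evaluation: GFP/RFP fluorescence ratio / Control set: DMSO and RFP-L50D-GFP cell wells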
Yeast UUG start – modulators of start codon recognition fidelity in yeast. S. cerevisiae UUG-firefly luciferase reporter, luminescence/redox ratio. activity score, % at 18.7 µM. 0.13% of 350,000 active. AID 602363;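 active = replicate mean at a twofold rise or more, about +100% in these data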;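 note: firefly luciferase made from a UUG start codon reports start codon fidelity; reporter light over untreated wells divided by growth signal over untreated wells; some hits fall short of that in this replicate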
CSC inhib – blocks cancer stem cells | cancer stem cell-like cells viability, luminescence | inhibition, % at 7.5 µM | 1.1% of 300,000 active | AID 2717;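 active = mean at 75% or more and at least half the replicates too; tested in HMLE shEcad cells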;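 note: 0% = median of negative and 100% = median of positive control wells; the first replicate is given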
eIF4H inh – inhibitors of RNA binding by human eIF4H; Q15056; eIF4H fluorescence polarization binding assay; inhibition, % at 35 µM; 0.94% of 290,000 active;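 active = 50% or more with normal probe brightness, or confirmed in later tests; about a fifth of its hits are not listed in these tables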;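 note: calls also rest on retests at 20 µM and on dose response follow-up; 0% = protein and probe with vehicle and 100% = probe without protein; strong numbers were not always called active; many hits fall short of the cut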
Rce1 inh – yeast Ras-converting enzyme inhibition; Q03530; yeast membranes, quenched prenylated peptide cleavage fluorescence; calls only; 0.27% of 290,000 active;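 active = fall in fluorescence gain of 50% or more versus controls, with final raw signal at or below 3038400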;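 note: plate controls were neutral control wells for no effect and wells lacking membranes for full effect; tested at 10 µM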
HIV Env fusion – HIV envelope-mediated fusion inhibition; AID 651610; 1.1% of 360,000 active; inhibition, % at 12.3 µM; HeLa-JRFL Env/CEM21 cell fusion, luciferase;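 active = mean replicate inhibition score of at least 50 and every replicate individually at or above 50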;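 note: 0% = plate neutral controls and 100% = maraviroc near 300 nM; one replicate is shown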
eIF4H inh retest – further read-out of eIF4H inh, marked with its call; inhibition, %; compound at 20 µM; confirmation average;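 mean of two retest wells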
PABP FP inh retest – recorded beside PABP FP inh, whose call it bears; inhibition, %; compound at 20 µM; confirmation repeats;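 mean of two retest wells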
MT1-MMP act inh RFP – also measured in MT1-MMP act inh; calls as there; RFP signal change, %; measured here: RFP expression control read;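 0 = vehicle wells; hits needed this value within 50% of zero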
* = called active by the depositor; i = inactive; · = not tested or not shown. The list is partial (hit frequency here may not be typical).

A first look (3 entries):
SMILES | PABP FP inh | MT1-MMP act inh | MT1-MMP act inh RFP | Yeast UUG start | CSC inhib | eIF4H inh | Rce1 inh | HIV Env fusion | others
COC(=O)Cc1cc(=O)oc2cc(O)ccc12 | -7.9 | -0.3 | 2.0 | -12.1 | 0.4 | 2.1 | i | 0.1
O=C(CSc1nc2ccccc2s1)NCc1cc([N+](=O)[O-])ccc1O | · | 1.9 | 2.2 | 12.1 | 17.5 | · | i | ·
Cc1nn(C)c(C)c1NC(=O)Nc1cccc(C(F)(F)F)c1 | -7.3 | -6.9 | -1.7 | · | 0.4 | -7.3 | i | ·

The list itself (from the top)
SMILES | PABP FP inh | MT1-MMP act inh | MT1-MMP act inh RFP | Yeast UUG start | CSC inhib | eIF4H inh | Rce1 inh | HIV Env fusion | others
COC(=O)Cc1cc(=O)oc2cc(O)ccc12 | -7.9 | -0.3 | 2.0 | -12.1 | 0.4 | 2.1 | i | 0.1
O=C(CSc1nc2ccccc2s1)NCc1cc([N+](=O)[O-])ccc1O | · | 1.9 | 2.2 | 12.1 | 17.5 | · | i | ·
Cc1nn(C)c(C)c1NC(=O)Nc1cccc(C(F)(F)F)c1 | -7.3 | -6.9 | -1.7 | · | 0.4 | -7.3 | i | ·
C/C(=N\NC(=O)c1cccc([N+](=O)[O-])c1)c1cccc(NC(=O)C2CC2)c1 | -4.7 | 5.5 | 3.4 | · | -1.3 | -5.4 | i | 3.7
CCC(C)NC(=O)CSc1nnc(-c2ccoc2C)n1CC1CCCO1 (configuration not stated) | -1.7 | 7.7 | 6.3 | -17.3 | -10.0 | -10.8 | i | 1.8
COc1cccc(C(c2c(O)nc(SC)n(C)c2=O)c2c(O)nc(SC)n(C)c2=O)c1 | 11.0 | -0.9 | 3.4 | -15.6 | -15.5 | 0.9 | i | -31.5
CN(C(=O)CSc1ccncc1)C1CCCN(Cc2ccccc2F)C1 (configuration not stated) | 2.5 | 1.7 | 4.9 | -17.6 | 15.0 | -2.4 | i | -23.2
COc1ccc(OC)c(-c2cc(C(=O)Nc3cc(C)n(Cc4ccc(Cl)cc4)n3)no2)c1 | 13.8 | 4.0 | -14.5 | 1.7 | 9.8 | 4.1 | · | -36.4
COc1ccc(OC)c(/C=N/N(CCC#N)C2=NS(=O)(=O)c3ccccc32)c1 | 12.6 | -2.3 | -1.7 | -13.5 | -1.8 | -11.2 | i | -27.5
COc1ccc(-c2csc(NC(=O)CN3C(=O)C4CC=CCC4C3=O)n2)cc1 (configuration not stated) | · | 0.6 | -5.6 | -12.4 | -1.3 | · | · | ·
Cc1ccc(NC(=O)COC(=O)c2nn(C)cc2Cl)cc1 | 4.1 | 2.7 | 1.5 | · | -6.4 | 1.6 | i | -10.2
CCCCCC(=O)N1C[C@@H](n2cc(COC(=O)c3ccccc3)nn2)[C@H](O)C[C@@H]1c1ccccc1 | · | 2.4 | 8.7 | -26.2 | · | · | · | -73.1
Cc1ccc(NC(=O)Cn2c(=O)n(CCCCC(=O)NCc3ccco3)c(=O)c3ccccc32)cc1 | 0.8 | 0.4 | -3.5 | 1.8 | -22.3 | -6.7 | i | ·
COc1ccc(OC)c(NC(=O)CN2CCC(C(=O)c3ccc(C)cc3)CC2)c1 | -6.4 | -1.4 | -1.0 | -10.8 | 30.3 | -9.9 | i | 44.8
CN1C(=O)CC(N2CCN(c3ccc(Cl)cc3)CC2)C1=O (configuration not stated) | -4.1 | -0.6 | 1.7 | · | 5.2 | 0.2 | i | -12.6
CCCN1CCN(C(=O)c2cccc3c2C(=O)N(CCOC)C3)CC1 | 8.6 | 2.9 | 6.5 | -12.5 | -12.0 | 10.2 | i | 0.9
COc1cc(CCCN2C(=S)NC[C@H]2Cc2ccc(O)cc2)cc(OC)c1OC | -11.6 | -5.5 | -21.2 | -19.8 | -0.5 | -6.6 | i | 13.9
CCCCN(C(=O)c1cc(-c2ccncc2)nc2ccccc12)c1c(N)n(CC(C)C)c(=O)[nH]c1=O | · | -3.1 | 6.6 | -2.9 | 3.8 | · | · | -5.2
O=C(N/N=C/c1ccc2c(c1)OCO2)c1sc2cc(Cl)ccc2c1Cl | 6.7 | 0.7 | -4.3 | · | 70.4 | 4.8 | i | -24.9
COc1ccc(CN=C2NC(=O)CC(C(=O)Nc3ccc(F)cc3)S2)cc1 (configuration not stated) | 2.1 | 0.2 | 0.5 | -8.9 | -3.8 | 5.6 | i | ·
Cc1cc(C(F)(F)F)n2ncc(-c3cccc(Br)c3)c2n1 | -0.4 | -3.7 | -0.8 | -7.3 | -8.5 | 6.7 | i | 2.8
Cc1ccc2nc(C)c(C(=O)NN=C3CCCCCC3)n2c1 | 2.0 | 4.9 | 1.8 | · | -15.8 | -4.4 | i | 23.6
CN(CC(=O)Nc1ccc(F)cc1)C(=O)c1cc2c(s1)CCCCC2 | · | 3.9 | -0.5 | -4.1 | -0.5 | · | i | ·
O=C(CSc1cccc[n+]1[O-])N1CCc2ccccc21 | 42.6 | 0.7 | 1.8 | -1.2 | -3.6 | -2.1 | i | 2.3
COc1cc(/C=N\NC(=O)c2ccc(=O)[nH]n2)cc(OC)c1OC | -2.6 | 11.1 | 9.9 | -12.6 | · | 2.7 | i | ·
Other records follow.
SMILES | PABP FP inh | MT1-MMP act inh | MT1-MMP act inh RFP | Yeast UUG start | CSC inhib | eIF4H inh | Rce1 inh | HIV Env fusion | others
Cc1c(C(=O)NCc2ccccc2)c(-c2ccccc2)nn1-c1ccccc1 | 6.1 | 3.9 | -6.3 | 23.4 | 9.9 | 2.4 | i | 29.1
C#CCN(C[C@H]1[C@H](OC(=O)Nc2cccs2)[C@H](OC(=O)Nc2cccs2)C[C@H]2C(=O)N(c3ccccc3)C(=O)[C@@H]12)S(=O)(=O)c1ccc(C)cc1 | · | -0.4 | -2.6 | -13.9 | · | · | · | -8.8
O=C(Cn1c(=O)[nH]c2ccsc2c1=O)NC1CCCCC1 | 4.7 | -0.5 | -3.4 | 7.7 | -6.0 | -3.9 | i | -72.2
CC1(c2ccc(OC(F)F)cc2)NC(=O)N(CC(=O)Nc2ccc(Cl)cc2F)C1=O (configuration not stated) | -4.3 | -1.9 | 0.3 | -10.5 | 8.0 | -7.3 | i | 2.7
CC(C)CN1C(=O)c2ccc(C(=O)Nc3ccccc3C(=O)O)cc2C1=O | 4.9 | -1.1 | -0.7 | -4.2 | -3.9 | -11.1 | i | -12.1
O=C(NCCO)C1COc2ccccc2O1 (configuration not stated) | -12.9 | -1.6 | -0.1 | -15.5 | -17.3 | -11.8 | i | -5.5
O=C(CCCc1ccccc1)Nc1ccnn1C1CCN(Cc2ccccc2F)CC1 | -17.2 | 1.5 | 2.1 | -1.9 | -5.3 | -1.5 | i | -16.2
Cc1ccc(-n2ncc3c2CCCC3NC(=O)CCCN2CCCC2=O)cc1C (configuration not stated) | 2.5 | 2.6 | -3.8 | -12.3 | -19.5 | 6.2 | i | 1.6
CCCCc1c(C)nc(Nc2ccc(OC)cc2)[nH]c1=O | 4.0 | 4.1 | -0.3 | -12.8 | 2.5 | -16.5 | i | -9.3
COc1ccc(-c2nc(N3CCC(C)CC3)[nH]c(=O)c2C#N)cc1 | -2.6 | 6.2 | 1.0 | -8.9 | 7.1 | 5.2 | i | ·
CCOC(=O)c1cnc(-n2nc(C)cc2C)nc1Oc1ccc(C(=O)OC)cc1 | -3.7 | -2.5 | -5.9 | -29.7 | -3.0 | -10.3 | · | -3.9
COCCNC(=O)C(C)Oc1ccccc1 (configuration not stated) | -5.4 | -1.4 | 4.1 | 0.8 | -6.2 | -7.1 | i | 5.1
CN1CCC[C@@H]1CCNC(=O)c1c(-c2ccc3c(c2)OCO3)noc1-c1ccsc1 | · | -8.0 | -1.8 | 0.9 | -7.0 | · | · | -45.9
Cc1c(Br)c(=O)oc2c(Br)c(O)c(O)cc12 | 4.9 | 19.0 | 4.0 | · | 46.5 | 108.7 | i | -9.5 | eIF4H inh retest=-15.4;PABP FP inh retest=-4.2
N#Cc1ccccc1NCc1ccccc1 | -5.5 | 1.4 | -0.4 | · | -7.1 | -1.2 | i | ·
CC1(c2ccccc2)NC(=O)N(CC(=O)Nc2ccc(S(N)(=O)=O)cc2)C1=O (configuration not stated) | 5.4 | -2.7 | -3.3 | -15.9 | -8.3 | -13.0 | i | 5.3
CCOC(=O)c1nnc(-c2ccccc2)nc1N1CC(C)OC(C)C1 (configuration not stated) | -5.0 | 1.2 | 2.7 | · | -6.7 | 8.7 | i | -22.1
Cc1[nH]nc2c1C1(C(=O)Nc3ccc([N+](=O)[O-])cc31)C(C#N)=C(N)O2 (configuration not stated) | 7.1 | -1.9 | 1.9 | -7.9 | -17.9 | -2.6 | i | -20.2
COc1ccc(/C=C(/NC(C)=O)C(=O)O)cc1 | -3.4 | 1.9 | 2.0 | -20.1 | 5.3 | -2.7 | i | ·
COc1ccc(CC(=O)N(C)Cc2cccc(OC)c2OC)cc1S(=O)(=O)N1CCOCC1 | · | 4.2 | 1.5 | -19.9 | -0.1 | · | i | ·
O=C(C1CCN(C2CCN(C/C=C/c3ccccc3)CC2)CC1)N1CCOCC1 | 3.0* | 6.8 | 8.2 | -6.7 | 6.0 | 56.2* | i | 12.6 | eIF4H inh retest=68.2*;PABP FP inh retest=61.0*
COc1ccc(C(=O)CSc2nnc(CC(=O)Nc3ccccc3OC)n2C)cc1 | -1.1 | 0.5 | -2.5 | -21.1 | -5.5 | 5.0 | i | 6.0
C=C(C)CNC(=S)N/N=C(\C)c1cccc(NC(C)=O)c1 | 30.7 | 4.2 | -5.2 | · | · | -6.5 | i | 4.9
CC(=O)C(/C=N/c1ncc(C(F)(F)F)cc1Cl)=C(\C)O | -16.7 | 5.2 | 10.6 | · | 5.6 | -0.8 | i | -21.6
CCC(C)[C@H](NC(=O)Nc1ccc(C)cc1C)C(=O)O (some centres not stated) | 6.3 | 2.5 | 4.8 | -16.2 | -6.6 | -6.0 | i | 3.1
(listing goes on)
SMILES | PABP FP inh | MT1-MMP act inh | MT1-MMP act inh RFP | Yeast UUG start | CSC inhib | eIF4H inh | Rce1 inh | HIV Env fusion | others
COc1ccc(/C=C(/NC(=O)c2ccccc2)C(=O)NCCCn2ccnc2)cc1OC | -11.6 | 2.7 | 8.0 | -14.7 | -20.4 | -1.2 | i | 3.2
O=C(NN1C(=O)NC2(CCCCC2)C1=O)c1cc2cc(Cl)ccc2o1 | · | 1.4 | 4.2 | · | -7.8 | · | · | 6.6
O=C(CCCSc1nc2ccccc2s1)NC1=NCCS1 | 19.6 | 1.6 | -3.4 | -34.6 | · | 3.5 | i | -2.1
Cc1ccc(NC(=O)CN2C(=O)COc3ccc(C)cc32)nc1 | -3.1 | -0.9 | -1.5 | -20.7 | 1.1 | 0.3 | i | 0.8
CCC(C)C(=O)Nc1nnc(SCC(=O)NC2CCCC2)s1 (configuration not stated) | 6.2 | -2.3 | -4.7 | -7.3 | 17.7 | -3.0 | i | -0.3
CCOC(=O)C1(Cc2ccccc2)CCCN(C2CCN(C(C)=O)CC2)C1 (configuration not stated) | 20.8 | -15.6 | 3.9 | 1.7 | 4.7 | 38.9 | · | -4.1
Cc1cc(C(C)(C)C)cc(C)c1COC(=O)c1cccnc1 | 10.0 | -10.0 | -24.9 | · | -1.4 | -2.0 | i | 25.9
Nc1nonc1-n1nnc(C(=O)N/N=C/c2cccc(F)c2)c1-c1ccccc1 | 2.4 | 0.3 | 2.5 | -1.8 | 0.1 | -2.3 | i | 12.2
O=C(O)c1ccc2c(c1)C(=O)N(Cc1ccco1)C2=O | 14.1 | 1.7 | 1.9 | -10.6 | 4.8 | 3.5 | i | -4.8
O=C(CSc1ncnc2c1cnn2-c1ccc(F)cc1)NC1CCCC1 | -0.9 | 1.5 | -29.7 | -11.0 | -0.1 | -5.1 | i | 2.6
Cc1ccc(S(=O)(=O)c2cc3c(=O)n4ccccc4nc3n(CCCN3CCOCC3)c2=N)cc1C | 28.2 | -12.1 | 5.6 | -11.3 | 15.6 | 81.0 | i | 17.4 | eIF4H inh retest=17.8;PABP FP inh retest=34.7
